Screening results deposited in PubChem BioAssay by ICCB-Longwood Screening Facility, Harvard Medical School.
Sa growth inh: S. aureus growth inhibition at 42 and 30 °C, primary screen, LtaS inhibitor project, RN4220, two temperatures; OD600, 20 h, 42 °C; hits give low values; relative growth, % (no concentration beside the values); 0.53% of 170,000 active;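 active means growth at 42 °C up to 50% and 20 or more points under that at 30 °C, or under 10% at both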;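 further: 300 nL library stock went into each well; scaled to the means of positive and negative controls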
HCMV NEC inh: inhibitors of HCMV UL50-UL53 interaction, biochemical, HTRF; HCMV UL50-UL53 nuclear egress complex (human cytomegalovirus); normalized percent inhibition; inhibition, % (test concentration not listed); 0.15% of 190,000 active;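 active means both replicates at 50% or more, plus weaker picks with an unusually low signal ratio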;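 further: stock transfer was 100 nL into about 20 µL; 0% = negative control wells and 100% = wells with untagged competitor protein; inactives centre near -12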
GIV-Gai inh: inhibitors of GIV peptide binding to Galpha-i3, primary screen, biochemical, fluorescence polarization, FITC-GIV GBA peptide, rat Galphai3 | 90 min; hits give low values; scaled: aluminum fluoride 0%, vehicle 100% | 0.42% of 210,000 active | Guanine nucleotide-binding protein G(i) subunit alpha-3 (Rattus norvegicus), P08753 | percent of control (FP), % (test concentration not listed);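 active means replicate mean at 85% of control or lower, very high polarization wells dropped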;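 further: wells of about 15 µL received 100 nL stock; the first replicate is given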
Target sequence (P08753 whole entry, looked up): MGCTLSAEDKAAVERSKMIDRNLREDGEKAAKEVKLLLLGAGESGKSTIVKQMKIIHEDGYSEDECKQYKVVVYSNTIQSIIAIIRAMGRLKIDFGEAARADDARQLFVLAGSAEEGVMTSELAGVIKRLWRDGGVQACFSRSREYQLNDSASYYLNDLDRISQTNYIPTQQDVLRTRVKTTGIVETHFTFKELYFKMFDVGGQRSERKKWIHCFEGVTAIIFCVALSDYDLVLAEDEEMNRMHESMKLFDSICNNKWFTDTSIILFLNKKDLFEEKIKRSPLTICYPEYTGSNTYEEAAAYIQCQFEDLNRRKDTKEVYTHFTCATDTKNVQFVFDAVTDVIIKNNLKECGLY
Sa growth inh second temp: second read-out of Sa growth inh, no call of its own (marks repeat the call); relative growth, %; measured here: growth at 30 °C;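 optical density after 20 h as mean of two plates; 100% = untreated growth and lower means inhibition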
* = called active by the depositor; x = not tested or not shown; & = joins results of further samples.

Field names – A = Sa growth inh; B = Sa growth inh second temp; C = HCMV NEC inh; D = GIV-Gai inh
CCOC(=O)CNc1ncc(C(F)(F)F)cc1Cl
  A = x; B = x; C = -13; D = 103
CCOC(=O)C1CCN(C(=O)c2ccccc2SCCOC)CC1
  A = 102; B = 96; C = 3; D = 108
O=C(Oc1ccccc1)c1ccco1
  A = 105; B = 106; C = -1; D = 102
c1ccc(CCCN2CCN(Cc3ccccc3)CC2)cc1
  A = 102; B = 96; C = -14; D = 100
O=C1c2cccc3cccc(c23)C(=O)N1CC1CCN(CC(O)COCc2ccc(Cl)cc2)CC1 (stereo not given)
  A = x; B = x; C = -59; D = 105
O=C(N/N=C\c1ccco1)c1ccc(S(=O)(=O)N2CCCCCC2)cc1
  A = 101; B = 88; C = -18; D = 104
O=C(O)c1cnn2cc(Br)cnc12
  A = x; B = x; C = -15; D = 102
Cc1ccc(CSc2nnnn2-c2ccccc2)cc1
  A = 94; B = 78; C = 2; D = 102
c1ccc(CSc2ncccn2)cc1
  A = 93; B = 106; C = 9; D = 108
O=C(/C=C/c1ccccc1)N1CCN(Cc2cc(=O)n3nc(-c4ccccc4F)sc3n2)CC1
  A = 83; B = 89; C = x; D = 108
CC(C(=O)O)n1nc(-c2ccccc2)c2ccccc21 (stereo not given)
  A = 98; B = 89; C = -7; D = 104
CN(C)c1ccc(NC(=O)c2cn(C)c3c(=O)n(-c4ccc(Cl)cc4)c(=O)[nH]c23)cc1
  A = x; B = x; C = -35; D = 106
CC(SC1=NS(=O)(=O)c2ccccc21)C(=O)O (stereo not given)
  A = 97; B = 101; C = -4; D = x
CC1(C)C(=O)N(CC(=O)Nc2ccc3c(c2)OCO3)c2ccccc21
  A = x; B = x; C = -5; D = 97
CCN(CC)c1ccc(C(=O)NN=C2C3CC4CC(C3)CC2C4)cc1
  A = 78; B = 91; C = 5; D = x
CC(C)CN(CC(C)C)C(=O)Cn1nc(C(=O)O)c2ccccc2c1=O
  A = 102; B = 97; C = -14; D = x
COc1ccc(C2C3=C(CC(C)(C)CC3=O)Nc3c(C(=O)Nc4ccc(C)cc4)cnn32)cc1 (stereo not given)
  A = x; B = x; C = -9; D = 97
CC(C)c1cccc(C(C)C)c1NC1=NS(=O)(=O)c2ccccc21
  A = 95; B = 84; C = -24; D = 101
Cc1cccc(NC(=S)NC(=O)/C=C/c2ccco2)c1
  A = 97; B = 64; C = -28; D = 137
Cc1ccc(CNC(=O)CN(C)S(=O)(=O)c2cccs2)cc1
  A = 96; B = 79; C = x; D = 101
COc1ccc(Br)c(C(=O)Nc2c(C)nc3nc[nH]n3c2=O)c1
  A = 95; B = 89; C = -5; D = 105
CC1(C(=O)NC2CCCC2)Cn2c(cc3ccccc32)C(=O)N1CCN1CCOCC1 (stereo not given)
  A = x; B = x; C = 3; D = 103
COc1ccc(Cl)cc1NC(=O)c1c(NCc2cccnc2)sc2c1CCCC2
  A = 107; B = 87; C = x; D = 102
O=C(c1ccc(NC(=O)N2CCCCc3ccccc32)cc1)N1CCN(c2ccc(Cl)cc2)CC1
  A = x; B = x; C = -2; D = 100
Cc1cccc(NC(=O)c2cc3c(=O)n(Cc4cccnc4)ccc3nc2C)c1
  A = 99; B = 101; C = x; D = 95
N#Cc1ccc(-n2c(-c3ccccc3)nnc2-c2ccccc2)cc1C#N
  A = 102; B = 94; C = -4; D = x
CN(C)c1ccc(CNC(=O)C2CCN(S(=O)(=O)c3ccc4[nH]c(=O)ccc4c3)CC2)cc1
  A = 106; B = 87; C = x; D = 99
CC(C)Cc1cc(-c2nnc3sc(-c4ccc(N(C)C)cc4)nn23)n[nH]1
  A = x; B = x; C = -22; D = 106
COc1cc(NC(=O)c2ccc3c(SCC(=O)O)c4c(nc3c2)CCCC4)cc(OC)c1OC
  A = 81; B = 85; C = -13; D = 105
COc1ccc(CNS(=O)(=O)c2c(C)sc(C)c2-c2ccno2)cc1
  A = x; B = x; C = 0; D = 104
Cc1ccc(CSc2nnc3n(CCCOC(C)C)c(=O)c4cc(Cl)ccc4n23)cc1
  A = x; B = x; C = 10; D = 100
O=c1[nH]cc(N2CCN(Cc3ccccc3)CC2)c(=O)[nH]1
  A = 91; B = 86; C = -8; D = 100
CCCCc1ccc(N2C(=O)CC(c3ccc(OC)c(OC)c3)CC2=O)cc1
  A = x; B = x; C = -56; D = 102
Cc1noc2c1C(c1ccc(Br)c(F)c1)C1=C(CC(c3ccc(O)cc3)CC1=O)N2 (stereo not given)
  A = x; B = x; C = -7; D = 114
CCCCOc1ccc(C(=O)NCC(=O)NC2CC2)cc1
  A = 76; B = 99; C = -29; D = x
Cc1cc(Br)ccc1NC(=O)c1ccc(NS(=O)(=O)c2c(C)noc2C)cc1
  A = 103; B = 63; C = -13; D = 107
Cc1cc(N2CCC(C)CC2)n2nc(C(F)(F)F)c(-c3ccc(F)cc3)c2n1
  A = x; B = x; C = -15; D = 100
COc1cc(Cl)c(C)cc1NC(=O)NC1COc2ccccc2C1 (stereo not given)
  A = 89; B = 96; C = x; D = 99
CN(C)C(=S)Nc1ccc2c(c1)OCCO2
  A = 99; B = 94; C = -16; D = 104
O=c1c(S(=O)(=O)c2cccc(F)c2)c[nH]c2cc(F)c(Cl)cc12
  A = x; B = x; C = -16; D = 104
CN(C)/C=C1\SC(=O)N(c2ccccc2)C1=O
  A = 104; B = 99; C = 2; D = 101
COc1ccc(NCc2cc(=O)oc3cc(NC(C)=O)ccc23)cc1
  A = 74; B = 96; C = -22; D = x
CCc1ccccc1N(C)C(=O)c1cnc(N2CCOCC2)c2ccccc12
  A = 95; B = 88; C = x; D = 106
COc1cccc(OC)c1C(=O)NNc1ncc(C(F)(F)F)cc1Cl
  A = 108; B = 97; C = 8; D = 104
COc1ccc(Cc2c(Cl)nc(SC)nc2NN)cc1
  A = 57; B = 60; C = -1; D = 97
CCCCc1nc2ccccc2n1CC(=O)N(COCC)c1c(C)cccc1CC
  A = 106; B = 92; C = -11; D = 107
N#CCCn1c(SCc2ccc(C#N)cc2)nc2ccccc21
  A = 101; B = 86; C = -32; D = x
S=c1[nH]nc(C2COc3ccccc3O2)o1 (stereo not given)
  A = 112&86; B = 86&100; C = -1&4; D = 83*
Cc1nc(-c2cc(S(=O)(=O)NCC(=O)N3CCN(c4cccc(Cl)c4)CC3)c(C)s2)no1
  A = x; B = x; C = -8; D = 105
Cc1ccc(Cn2c(CN3CCC(C(=O)NCCc4ccccc4)CC3)cc3ccccc32)cc1
  A = 131; B = 66; C = x; D = 99
Cc1ccc2cccc(OC(=O)c3ccc(Br)o3)c2n1
  A = 0.3*; B = 0.4*; C = -15; D = 103
COc1ccc(-c2nc3scc(CCNS(=O)(=O)c4c(C)noc4C)n3n2)cc1OC
  A = 96; B = 109; C = x; D = 102
COc1ccc(N2CCN(C(c3cccs3)C(C)NC(=O)c3c(F)cccc3F)CC2)cc1 (stereo not given)
  A = 92; B = 96; C = 5; D = 103
Cc1cc(C)cc(-n2ccn3c(CCC(=O)NCCc4c[nH]c5ccccc45)nnc3c2=O)c1
  A = x; B = x; C = -22; D = 102
O=C(Oc1ccc2cc(OC(=O)c3ccccc3)ccc2c1)c1ccccc1
  A = 115; B = 81; C = x; D = 105
CCOc1ccc(CC(=O)NC2CC(=O)N(c3cccc(F)c3)C2)cc1 (stereo not given)
  A = 102; B = 87; C = x; D = 99
CCC1Cn2c(C(=O)NCCCN3CCOCC3)cc3c(Cl)ccc(c32)O1 (stereo not given)
  A = x; B = x; C = -14; D = 107
CC(C)NC(=O)CSc1nnc(N)s1
  A = 75; B = 90; C = -20; D = x
COc1cc(OC)c(NC(=O)c2cnc(N3CCCC3)nc2C)cc1Cl
  A = 106; B = 91; C = x; D = 107
Cc1oc(C)c2c(=O)cc(-c3ccc4c(c3)OCO4)cc(OC(=O)c3ccc(C(C)(C)C)cc3)c12
  A = x; B = x; C = -4; D = 119

Remaining list, next part.
Each structure is followed by: Sa growth inh	Sa growth inh second temp	HCMV NEC inh	GIV-Gai inh
> N#Cc1ccc(NC(=O)CCCC(=O)O)cc1
    101	77	-19	102
> Clc1ccccc1CCNc1ncnc2oc3c(c12)CCCC3
    x	x	-38	100
> CC12CC3(C(=O)Nc4ccc(Br)cc4)C1CCC23C (stereo not given)
    118	81	-30	x
> COc1cccc(N2CCN(C(=O)c3cnn(-c4ccccc4Cl)c3C3CCN(C(=O)OC(C)(C)C)CC3)CC2)c1
    109	102	x	109
> Cc1cc(C(=O)OCC(=O)Nc2ccccc2)c(C)o1
    80	93	-17	x
> COc1ccc(-c2cc(C(C)=O)c(C)n2CCC(=O)Nc2ccc(C(F)(F)F)cc2)cc1
    96	72	x	106
> CC1=C(C(=O)OCCc2ccccc2)C(c2ccc(Cl)c(Cl)c2)NC(=O)N1C (stereo not given)
    x	x	-14	104
> COc1ccc(-c2nc(CNC(=O)c3ccc(-c4noc(C(C)C)n4)cc3)no2)cc1
    x	x	12	116
> CCN(CC)C(=O)c1ccc(C(=O)c2cc(OC)ccc2OC)cc1
    98	110	3	106
> CC1(C)CCc2cc(-c3ccn(S(=O)(=O)c4ccc(Cl)cc4)n3)ccc2O1
    97	90	-26	101
> CC(C)(C)n1ncc2c(=O)n(CC(=O)NCc3ccc(F)cc3)cnc21
    97	90	-9	103
> CC12C(=O)N(c3nccs3)C(=O)C1C1C=CC2C1 (stereo not given)
    106	84	2	103
> CC(=Nc1ccc(C)cc1C)c1sc2ccccc2c1O
    118	92	x	215
> CC1(C)CC(=O)c2cc(-c3nc(-c4ccc(Oc5ccccc5)cc4)cs3)c(=O)[nH]c2C1
    x	x	-29	112
> O=C(NC1CCCCCC1)c1ccccc1
    93	80	-18	103
> CC1CCCN(S(=O)(=O)c2ccc(NC(=O)c3nc(SC(C)C)ncc3Cl)cc2)C1 (stereo not given)
    98	88	-19	99
> Cc1cc2nc(C(=O)N3CCN(c4cccc(C)c4C)CC3)c(=O)n(C)c2cc1C
    x	x	-32	102
> N#CC(C#N)=C1c2cc(S(=O)(=O)NCCO)ccc2-c2ccc(S(=O)(=O)NCCO)cc21
    89	83	-93	x
> NC(=O)C[n+]1cccc2ccccc21
    103	94	x	80*
> CCCN1C(=O)CCc2cc(NC(=O)CN3C(=O)c4ccccc4C3=O)ccc21
    x	x	-44	101
> O=C(COCc1cc(-c2ccc3c(c2)OCO3)on1)Nc1cccc(O)c1
    93	97	x	110
> CCCCN(CCCC)CCNC(=O)Cn1nc(C)n2c(cc3sccc32)c1=O
    135	88	-31	104
> Cc1cc(C)c2c(-n3cccc3)nn(CCCC(=O)Nc3cccc(Cl)c3)c2n1
    x	x	-28	103
> Cc1ccc(C2=NNC(c3cccc(C)n3)S2)cc1 (stereo not given)
    100	77	x	103
> CCOc1ccc(NC(=O)CSC2=C(C#N)C(c3cccs3)C3=C(CC(C)(C)CC3=O)N2)cc1 (stereo not given)
    100	95	x	103
> Cc1ccc(CNC(=O)C2CCN(Cc3nc(-c4ccccc4C)oc3C)CC2)cc1
    110	87	-21	106
> Cc1nc2ccc(CCC(=O)O)cc2[nH]1
    99	91	-6	106
> COc1cccc(CNC(=O)Cn2c(C)c3cnn(-c4ccccc4)c(=O)c3c2C)c1
    109	86	-14	104
> COc1ccc(S(=O)(=O)Nn2cnnc2)cc1
    84	86	-16	105
> CC(=O)Nc1cccc(C(=O)OCC(=O)c2cc3ccccc3o2)c1
    116	73	-62	x
> Cc1cc(NC(=O)c2noc3c2CC(C(C)(C)C)CC3)nn1Cc1ccc(Cl)cc1 (stereo not given)
    92	100	7	102
> CCOc1ccc(CCNC(=O)Cn2nc(CC)n3c(cc4sccc43)c2=O)cc1
    104	98	2	96
> CCOc1cc(CO)ccc1OCC(=O)Nc1ccc(C)c(Cl)c1
    95	93	13	110
> O=C(c1ccncc1)N1c2ccccc2Sc2ccccc21
    105	82	x	100
> Cc1ccc(S(=O)(=O)N2CCN(S(=O)(=O)c3ccccc3)C2C(C)C)cc1 (stereo not given)
    127	110	4	x
